# VDR inhibitor: inhibitors of human vitamin D receptor; hit rate 0.93% among 400,000; VDR-SRC2-3 peptide fluorescence polarization, 2 h; Potency, µM, for the others: max response, negative = inhibition, most hits filed as inhibitors; active = well fitted inhibition curve with a large enough effect; inconclusive = small, poorly fitted or top-dose-only effect, or another doubt; inactive = no such curve, though single readings can be large or run the other way; also: series mostly up to about 120 µM
# Target sequence (P11473 whole entry, looked up): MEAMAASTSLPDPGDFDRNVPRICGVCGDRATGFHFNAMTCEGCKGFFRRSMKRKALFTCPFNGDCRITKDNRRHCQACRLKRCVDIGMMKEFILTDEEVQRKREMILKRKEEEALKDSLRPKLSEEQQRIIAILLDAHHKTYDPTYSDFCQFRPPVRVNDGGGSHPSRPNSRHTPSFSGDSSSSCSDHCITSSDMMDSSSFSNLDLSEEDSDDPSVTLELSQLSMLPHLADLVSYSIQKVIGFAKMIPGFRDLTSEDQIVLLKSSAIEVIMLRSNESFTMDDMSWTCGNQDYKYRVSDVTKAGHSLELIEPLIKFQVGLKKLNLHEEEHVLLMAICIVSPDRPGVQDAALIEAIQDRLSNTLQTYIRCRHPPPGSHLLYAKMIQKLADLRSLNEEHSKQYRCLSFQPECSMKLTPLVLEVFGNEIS
#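 Inhibition of the VDR/SRC2-3 peptide interaction is quantified by fluorescence polarization. Compounds (23 nl, pintool) incubate with the reagents for 2 hours at ambient room temperature.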
# * hit, by the source's call; u = inconclusive; & = joins results of further samples; [ ] = dose if it differs, or a comment. % is scaled to controls: 0 for no effect and ±100 for the full control effect; potency is read from the fitted curve at half-maximal effect. Only part of the results is shown. The share of hits here may be higher or lower than overall.
CC1CN(c2ccccn2)C(C)CN1C(=S)Nc1ccccc1 (centres undefined)
- VDR inhibitor = -10%

Cc1cc(C)c(C)c(S(=O)(=O)N2CCC(C(=O)Nc3ccc(S(=O)(=O)N4CCOCC4)cc3)CC2)c1C
- VDR inhibitor = 8%

O=C(CSc1ccccc1)Nc1ccncc1
- VDR inhibitor = -15%

CCOC(=O)N1CCN(C(=O)c2ccc3c(=O)n(CCC4=CCCCC4)c(=S)[nH]c3c2)CC1
- VDR inhibitor = 6%

C[C@@H](C(=O)NCC1CC1)[C@H]1C[C@]1(C)[C@H](NC(=O)OCc1ccccc1)c1ccccc1
- VDR inhibitor = -5%

CC(=O)OCCNC(=O)c1cc2ccccc2oc1=O
- VDR inhibitor = -12%

CN([C@@H](C(=O)OC(C)(C)C)c1ccccc1)S(=O)(=O)c1cccc(S(=O)(=O)N(C)[C@@H](C(=O)OC(C)(C)C)c2ccccc2)c1
- VDR inhibitor = -12%

COc1ccc(CN2CCNC(=O)C2CC(=O)N(C)CCC2CCOCC2)c(OC)c1 (centres undefined)
- VDR inhibitor = -6%

CC1(C)NC(=O)N(CC(=O)OCC(=O)NC(=O)c2ccccc2)C1=O
- VDR inhibitor = -8%

CCN1CCCC1CNC(=O)Cn1nc(C)n2c(cc3cc(C)ccc32)c1=O (centres undefined)
- VDR inhibitor = -8%

Cc1ccc(C(=O)OC2CCCN(C)C2)cc1 (centres undefined)
- VDR inhibitor = -10%

C=CCOC(=O)C1=C(C)NC(=O)NC1c1ccc2c(c1)OCO2 (centres undefined)
- VDR inhibitor = -2%

COc1ccc(C(=O)n2nc(C)cc2C)cc1OC
- VDR inhibitor = -3%

Cc1nc2c(s1)sc1ccccc12
- VDR inhibitor = -16%

C/C(Cn1nnc([N+](=O)[O-])n1)=N\NC(=O)c1ccncc1
- VDR inhibitor = -18%

CCOC(=O)c1c(C)[nH]c(CCC(=O)NCc2cc(Br)ccc2OC)c1C
- VDR inhibitor = 18%

C#CCn1c(O)c(N=NC(=O)C(O)c2ccccc2)c2ccccc21 (centres undefined)
- VDR inhibitor = -7%

O=[N+]([O-])c1ccc(N/N=C/c2ccc(OCc3cccc4ccccc34)cc2)nc1
- VDR inhibitor = -3%

O=C(c1ccccc1F)N1CCN(C(=O)C2CC2)CC1
- VDR inhibitor = -6%

COc1cc(C(=O)Nc2ccc(-c3nc4cc(C)ccc4o3)c(O)c2)cc(OC)c1OC
- VDR inhibitor = 18%

COc1cc2cc(CN(CCCN3CCOCC3)C(=O)Nc3ccc(F)cc3)c(=O)[nH]c2cc1OC
- VDR inhibitor = -13%

CCOC(=O)c1ccc(-n2c(CCC(=O)O)ccc2-c2ccc(F)cc2)cc1
- VDR inhibitor = -30%

O=[N+]([O-])c1cc(Cl)ccc1-c1nc(-c2ccccc2)no1
- VDR inhibitor = -2%

COCCNC(=O)CN(C(=O)CCC(=O)Nc1cc(C)on1)c1ccc(C)cc1C
- VDR inhibitor = 0%

Cc1[nH]c2ccccc2c1C(=O)COC(=O)C(C)C
- VDR inhibitor = -7%

O=C(CN1CCCc2ccccc21)N/N=C/c1ccccc1
- VDR inhibitor = 2%

COc1cccc(S(=O)(=O)Nc2cccc(C(=O)N3CCCC3)c2)c1
- VDR inhibitor = 13%

O=C(O)CCc1ccc(-c2ccccc2)n1-c1cccc(O)c1
- VDR inhibitor = 13%

CCN1c2cccc3cccc(c23)S1(=O)=O
- VDR inhibitor = 33%[activator]

COc1ccc(NC(=O)Cn2nc(C(F)(F)F)c3c2CCCC3)cc1OC
- VDR inhibitor = -16%&5%

CC(C)CC(=O)NS(=O)(=O)c1ccc(N)cc1
- VDR inhibitor = 5%

O=C(Nc1ccc(F)cc1)c1cncs1
- VDR inhibitor = -9%

c1cc2c(cc1C1CCCCC1)c1c3n2CCN[C@H]3CCC1
- VDR inhibitor = -13%

CCOC(=O)N1CCc2c(sc(NCc3cc(OC)c(OC)cc3OC)c2C(=O)Nc2ccc(OCC)cc2)C1
- VDR inhibitor = -28%

O=C(NCCc1ccccc1)C1CCN(C(=O)NCc2ccccc2)CC1
- VDR inhibitor = 15%

CCn1c(=O)cc(OCC(=O)NCc2ccccc2Cl)c2ccccc21
- VDR inhibitor = -11%

Cc1ccc2nsnc2c1NC(=O)c1ccc([N+](=O)[O-])cc1
- VDR inhibitor = -5%

COC(=O)CNC(=O)C1CCN(C(=O)OCc2ccccc2)CC1
- VDR inhibitor = -15%

CC1CC(C)CN(CCCNC(=O)C2CCCN(c3ncnc4c3nc3n4CCCCC3)C2)C1 (centres undefined)
- VDR inhibitor = -2%

Cc1ccc(C(=O)Nc2cccc(-c3nc4ncccc4o3)c2)cc1
- VDR inhibitor = -9%

CCCCOC(=O)NC(NCC(O)c1ccccc1)(C(F)(F)F)C(F)(F)F (centres undefined)
- VDR inhibitor = 12%

Cc1oc2ncn(CC(C)C)c(=O)c2c1C(=O)NCCCN1CCCCC1C (centres undefined)
- VDR inhibitor = 7%

CS(=O)(=O)OCC(O)C(O)COS(C)(=O)=O (centres undefined)
- VDR inhibitor = 5%

CCNc1ncc2nc(CCc3ccccc3)c(=O)n(C[C@H]3CCCO3)c2n1
- VDR inhibitor = 1%

COc1ccc(NC(=O)CSc2ccc(-c3ccco3)nn2)c(OC)c1
- VDR inhibitor = -5%

CC1CCCN(Cc2c(O)ccc3c(=O)c(-c4nc5ccccc5s4)c(N)oc23)C1 (centres undefined)
- VDR inhibitor = 24%

c1ccc(-c2cnnc(N3CCOCC3)n2)cc1
- VDR inhibitor = -6%

CCOC(=O)C1CCN(C(=S)Nc2ccc(C)cc2)CC1
- VDR inhibitor = -12%

Cc1ccc(S(=O)(=O)N2[C@@H](c3ccccc3F)C(C(=O)O)=CC[C@H]2c2cccc(C)c2)cc1
- VDR inhibitor = -9%

c1ccc(CC2CCCNC2)cc1 (centres undefined)
- VDR inhibitor = 6%

# Following part.
mol	VDR inhibitor
CN(C)C(CNC(=O)c1ccc(OCc2cn3ccccc3n2)cc1)c1ccco1 (centres undefined)	-8%
CCOc1ccccc1NC(=O)COC(=O)CC(C)(C)CC1=NS(=O)(=O)c2ccccc2N1	-14%&-2%
O=C(O)CCn1c(Cc2ccccc2)nc2ccccc21	7%
CC(=O)NNC(=O)CCn1nnc(-c2ccc(Cl)cc2)n1	3%
COc1ccc(-c2cc(-c3ccccc3)nc3c2COc2ccccc2-3)cc1	8%
CCc1c(C)sc(NC(=O)c2cc(-c3ccc(O)cc3)on2)c1C#N	u
Cc1cc(NC(=O)CSc2nnc(-c3ccc4c(c3)OCCO4)o2)no1	9%
COCCCNC(=O)CC1C(=O)N(Cc2ccccc2)C(C)c2nc3ccccc3n21 (centres undefined)	-11%
O=C(COc1ccc([N+](=O)[O-])cc1)NCc1ccncc1	-23%
Cc1ccc(CNC(=O)C2CCCN(c3ncnc4onc(-c5ccc(F)cc5)c34)C2)cc1 (centres undefined)	11%
O=C(CNC(=O)c1ccccc1)OCC(=O)c1ccccc1Cl	-2%
Cc1cc2c(cc1C)NC1=C(N2)OC(c2cccc(O)c2)C1=O (centres undefined)	14%
COc1ccc2c(c1OC)C(=O)OC2N1C(=O)CC[C@H]1C(=O)NCC1CCCO1 (some centres undefined)	-7%
COc1ccc(CC(=O)O/N=C(\N)Cc2cccc3ccccc23)cc1	-18%
CCCCC(=O)Nc1nc(-c2ccc(S(=O)(=O)N3CCOCC3)cc2)cs1	-1%
COCCCNc1nc2c(c(=O)[nH]c(=O)n2C)n1CC(O)COc1ccccc1 (centres undefined)	-9%
CCOP(=O)(c1ccccc1)c1nc(-c2ccc(F)cc2)oc1N1CCCCC1 (centres undefined)	-1%
Nc1nc(-c2ccccc2)c(-c2ccccc2)o1	1%
Cc1nnc(SC(=O)N2c3ccccc3Sc3ccccc32)s1	-22%
CC1(C)CC(=O)c2cc(C(=O)Nc3ccccc3Cl)c(=O)n(-c3ccc(Cl)cc3)c2C1	6%
CCN(CC)c1ccc(/C=N\NC(=O)c2cccc3cc[nH]c23)cc1	5%
COC(=O)CC/C(O)=C1\C(=O)CC(C)(C)CC1=Nc1ccccc1OC	-5%
CCn1c(=O)c2cc(C(=O)NC3CCCCCC3)sc2c2ccccc21	4%
Cc1cc(C)c2c(=O)n(CC(=O)NCCCN3CCN(c4ccccc4F)CC3)sc2n1	16µM*

# Reprinted from the part before: 4 compounds, then new ones.
mol	VDR inhibitor
CCN(CC)c1ccc(/C=N\NC(=O)c2cccc3cc[nH]c23)cc1	5%
COC(=O)CC/C(O)=C1\C(=O)CC(C)(C)CC1=Nc1ccccc1OC	-5%
CCn1c(=O)c2cc(C(=O)NC3CCCCCC3)sc2c2ccccc21	4%
Cc1cc(C)c2c(=O)n(CC(=O)NCCCN3CCN(c4ccccc4F)CC3)sc2n1	16µM*
CSc1ccc(Cn2nnc(C(=O)NCCc3ccc(Cl)cc3)c2N)cc1	2%
CCOc1cccc2cc(C(=O)N3CCc4ccccc43)c(=O)oc12	-2%
Nc1ccc2c(c1)Oc1ccccc1C=C2	-18%
CN(C(=O)c1ccno1)c1nnc(-c2ccccn2)s1	9%
O=S(=O)(c1ccc2c(c1)OCCO2)N1CCN(S(=O)(=O)c2ccco2)CC1	1%
O=C(NCc1ccccc1)C(=O)NCC(c1ccco1)S(=O)(=O)c1cccs1 (centres undefined)	-1%
CC(=O)N[C@@H](Cc1c[nH]c2ccccc12)C(=O)OCC(=O)Nc1ccc(Cl)c(S(=O)(=O)N(C)C)c1	0%
CCOC(=O)CNC(=O)Cn1c(C)cc2ccccc2c1=O	-7%
Cc1ccc(C)c(NC(=S)Nc2ccc(S(=O)(=O)Nc3ncccn3)cc2)c1	-12%
COc1ccc(-c2noc(C3CCCN(C(=O)c4ccccc4OC)C3)n2)cc1 (centres undefined)	-19%
COc1ccccc1NC(=O)Cn1c(SCC(=O)Nc2ccc(F)cc2)nc2ccccc21	-1%
O=C(CSc1nc2c([nH]c3ccccc32)c(=O)n1-c1ccc(F)cc1)N1CCCCCC1	-6%

# Quoted at random: 2 records from the list
mol	VDR inhibitor
O=C(NCc1ccccc1)C(=O)NCC(c1ccco1)S(=O)(=O)c1cccs1 (centres undefined)	-1%
O=S(=O)(c1ccc2c(c1)OCCO2)N1CCN(S(=O)(=O)c2ccco2)CC1	1%

# Next section
mol	VDR inhibitor
CC(=O)C1=C(C)Nc2ncnn2C1c1ccc(Cl)cc1 (centres undefined)	-2%
COC(=O)c1cc(CSc2ncnc3sccc23)oc1C	7%
Cn1c(-c2nonc2N)nc2ccccc21	2%
COc1ccc(S(=O)(=O)N(Cc2nc(-c3cccc(C)c3)no2)C2CCCCC2)cc1	12%
O=C(c1cncc(Br)c1)N1CCN(c2ccc(N3CCOCC3)nn2)CC1	3%
COc1ccc(NC(=O)N2CCCC2)cc1OC	-1%
Cc1onc(-c2ccccc2)c1C(=O)Nc1cccc(OC(C)C)c1	-5%
Cc1nc(N2CCN(C(=O)c3ccco3)CC2)c2c3c(sc2n1)CCC3	-13%
CC(=O)Nc1ccc(/C=N/Nc2ccc(C(=O)c3c(C)cc4ccccn34)cc2[N+](=O)[O-])cc1	11%
CCc1c(C)nc(SCC(=O)N2CCN(c3ccccc3)CC2)[nH]c1=O	-3%
COc1ccc(C(=O)CSc2nc3nc(C)cc(C)n3n2)cc1OC	-14%
Cc1cccc(N2CCN(C(=O)c3cc(C)oc3C)CC2C)c1 (centres undefined)	-8%
O=C(Nc1cccc(-c2cccc(Cl)c2)c1)C1CCN(CC2CCOC2)CC1 (centres undefined)	6%
Cc1ccc2[nH]c(C(=O)O)c(NC(=O)c3ccccc3[N+](=O)[O-])c2c1	-22%
COc1cc(C(=O)Nc2cccc(NC(=O)c3ccccc3)c2)cc(OC)c1OC	8%
COCCCN1C(=O)C(=O)/C(=C(/O)c2ccc(OCC(C)C)cc2)C1c1cccnc1 (centres undefined)	-4%
COc1ccc([C@H]2CC(=O)C=C(c3ccc4c5c(cccc35)CC4)C2)cc1	9%
CCOC(=O)C1CCN(CC(=O)Nc2ccc(OC)c(Cl)c2)CC1	-1%
Cc1cc(C)c2c(N)c(C(=O)NN3CC(=O)N(c4ccccc4)CC3=O)sc2n1	-2%
CCOc1ccc(C(C(=O)NC2CCCCC2)N(CCOC)C(=O)c2snc(C(N)=O)c2N)cc1 (centres undefined)	-2%
COC(=O)C1=C(N)Oc2cc(C)n(CC3CCCO3)c(=O)c2C1c1ccc(Cl)c(Cl)c1 (centres undefined)	-8%
COc1cc2c(=O)c(S(=O)(=O)c3ccccc3)cn(CC(=O)Nc3ccccc3C)c2cc1OC	-4%
CC1=NNC(=O)C1Cc1c(Cl)cccc1Cl (centres undefined)	-1%
CC(C)C12CN3CC(C(C)C)(CN(C1)C3c1ccccc1O)C2=O (centres undefined)	-13%
COCCN(C(=O)CSCC(=O)Nc1cccc(C)c1)c1c(N)n(Cc2ccccc2)c(=O)[nH]c1=O	-3%
CCN(CC)CCCNC(=O)CN1C(=O)CSc2ccc(S(=O)(=O)N3CCOCC3)cc21	-6%
CCOC(=O)C1=NOC(CNC(=O)C2=NOC(CNC(=O)c3c(-c4ccccc4Cl)noc3C)C2)C1 (centres undefined)	15%
O=CNCc1nc2ccccc2n1CCCc1ccccc1	-8%
CCOC(=O)c1c(C)[nH]c(C(=O)OCC(=O)c2ccc3c(c2)NC(=O)CO3)c1C	u
COCCNC(=S)N=Nc1c(O)[nH]c2ccc([N+](=O)[O-])cc12	-11%
Cc1ccc(NC(=O)COC(=O)C2CC3CCCC(C2)C3=O)c([N+](=O)[O-])c1 (centres undefined)	-3%
COc1cccc(C(=O)NCCCNC(=O)c2cccnc2)c1	-4%
CCc1ccc(CNC(=O)C2CCCN(c3nnc(C)c4c(C)n(-c5ccccc5)nc34)C2)cc1 (centres undefined)	-8%&3%
CCOc1cc(N2CCOCC2)c(OCC)cc1NC(=O)C1=COCCO1	9%
NS(=O)(=O)c1ccc(CCNC(=O)c2ccccc2F)cc1	-1%
COc1ccc(N)cc1C#N	-15%

# In another format: results already given.
VDR inhibitor | smiles
-8% | O=CNCc1nc2ccccc2n1CCCc1ccccc1
u | CCOC(=O)c1c(C)[nH]c(C(=O)OCC(=O)c2ccc3c(c2)NC(=O)CO3)c1C
-6% | CCN(CC)CCCNC(=O)CN1C(=O)CSc2ccc(S(=O)(=O)N3CCOCC3)cc21
